RecA splice inh – blocks M. tuberculosis RecA intein splicing; inhibition, %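 (about 9 µM by stock and volumes)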; P9WHJ3; cell-free RecA intein splicing, fluorescence; 0.75% of 290,000 active; in the data active = inhibition above about 30%; inconclusive = no clear call, values can overlap the other calls;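 also: 0% = vehicle wells and 100% = reference inhibitor control wells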
Target sequence (P9WHJ3 whole entry, looked up, canonical isoform): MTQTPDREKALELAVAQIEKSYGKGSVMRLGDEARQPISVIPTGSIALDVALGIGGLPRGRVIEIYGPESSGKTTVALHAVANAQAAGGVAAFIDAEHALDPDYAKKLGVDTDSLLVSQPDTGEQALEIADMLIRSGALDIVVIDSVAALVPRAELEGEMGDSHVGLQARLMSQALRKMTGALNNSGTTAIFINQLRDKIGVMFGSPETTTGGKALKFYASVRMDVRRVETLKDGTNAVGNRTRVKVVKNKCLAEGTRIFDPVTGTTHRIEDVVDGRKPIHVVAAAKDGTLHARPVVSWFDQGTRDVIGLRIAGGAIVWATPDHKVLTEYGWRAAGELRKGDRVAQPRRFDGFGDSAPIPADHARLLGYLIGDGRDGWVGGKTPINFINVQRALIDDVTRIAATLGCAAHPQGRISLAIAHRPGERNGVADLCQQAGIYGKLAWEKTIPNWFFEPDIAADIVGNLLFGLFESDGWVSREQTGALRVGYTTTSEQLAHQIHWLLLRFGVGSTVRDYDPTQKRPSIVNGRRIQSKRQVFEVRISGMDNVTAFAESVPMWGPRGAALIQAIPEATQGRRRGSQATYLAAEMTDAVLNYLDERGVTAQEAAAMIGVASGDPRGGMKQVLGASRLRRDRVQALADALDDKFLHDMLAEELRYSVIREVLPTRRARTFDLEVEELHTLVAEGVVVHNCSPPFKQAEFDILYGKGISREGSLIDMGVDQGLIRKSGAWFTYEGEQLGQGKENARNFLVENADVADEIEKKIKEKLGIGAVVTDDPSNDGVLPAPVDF
YopH inh – inhibitors of Yersinia enterocolitica YopH tyrosine phosphatase. fluorescence Ex485/Em525. inhibition, %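 (about 10 µM by stock and volumes)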. 0.16% of 140,000 active. AID 898;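 active = inhibition of 50% or more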;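 also: controls were vehicle for no effect and minimum signal wells for full effect; inactives centre near -20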
Mtb growth – M. tuberculosis H37Rv growth inhibitors, H37Rv strain (AID 1626) | one-dose inhibition, % at 10 µM; IC50 in µM for titrated hits | 0.95% of 220,000 active | M. tuberculosis H37Rv growth inhibition; higher % means a stronger effect;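 active = confirmed in a dose series; inconclusive = inhibition above 80% but not taken into the dose series; inactive = below 80% or under 30% at every dose of the series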;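 also: bacteria incubated seven days before Alamar blue readout; 0% = bacteria only wells and 100% = bacteria with antibiotic wells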
Arbovirus inh – antivirals against arbovirus infection. arbovirus infection cell-based antiviral screen. inhibition, % at 10 µM. 0.37% of 200,000 active;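 active = inhibition from about 30%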;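 also: bluetongue infection of BSR cells; cell survival read as ATP light after 72 h; 0% = infected wells without compound and 100% = uninfected wells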
Mtb betalactam – beta-lactam sensitization of Mtb H37Rv; 0.27% of 330,000 active; AID 434955; inhibition, % at 25 µM; M. tuberculosis H37Rv growth with meropenem, percent inhibition; hits of this screen are not shown here;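 active = about 74% or more and at least 40 points above the plate without the antibiotic, then above 30% in a dose series; inconclusive = first-round hits that could not be retested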;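 also: growth measured after seven days incubation then overnight dye step; 0% = bacteria only wells and 100% = bacteria with antibiotic; twin plates without the antibiotic show which effects depend on it; some results filed as inactive read as strong as hits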
Arbovirus inh repeat – further read-out of Arbovirus inh, marked with its call; inhibition, %; measured here: 10K subset replicate screen; many hits read low in the repeat;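 first of two repeat runs on a subset; 0% = infected and 100% = uninfected wells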
The depositor's hits bear a star; u = inconclusive; x = not tested or not shown. These rows are one share of the data; count on the stated rates, not on these rows.

SMILES	RecA splice inh	YopH inh	Mtb growth	Arbovirus inh	Mtb betalactam	others
CCOc1ccc(NC(=O)CN2CCN(CC(=O)Nc3cc(OC)cc(OC)c3)CC2)cc1	x	-35	3%	-5	-6
CCOc1ccccc1NC(=O)C1CCCN(C(=O)NCc2ccccc2)C1 (stereo unspecified)	2.5	-26	-13%	1	-8
CCN(CC)S(=O)(=O)c1ccc(OC)c(NS(=O)(=O)Cc2ccccc2)c1	-6.7	x	x	x	1
CN1CCCCc2c1nc1c(c2N)CCCC1	0.4	-18	-3%	-2	-1
Cc1sc2ncnc(N)c2c1C	-2.1	x	4%	x	-9
Cc1cc(C)cc(NC(=O)NCC(O)COc2ccc([N+](=O)[O-])cc2)c1 (stereo unspecified)	2.0	x	2%	x	-9
CCC1=C(OC(=O)N(CC)CC)N2C(=O)OC(=NCC3CC3)[C@]2(Cc2ccccc2)[C@H]2C1=CC[C@H]1C(=O)N(c3ccccc3)C(=O)[C@H]12	10	x	-10%	x	26
CCOC(=O)c1sc(N)c(C#N)c1COC(=O)CNC(=O)c1ccccc1	7.4	-48	-8%	-11	-8
COc1nc(-c2ccccc2)ccc1-c1noc(-c2ccccc2)n1	-2.5	-39	-17%	-3	22
COC(=O)Cc1ccc(NC(=S)NCc2ccccc2)cc1	-2.1	-21	-7%	-8	-10
CCN(CC)S(=O)(=O)c1ccc(N(C)C)c(NC(=O)CSCc2c(C)noc2C)c1	-2.0	x	x	x	-8
Cc1ccccc1Cn1ccc(NC(=O)c2cnn3c(C(F)(F)F)cc(-c4ccco4)nc23)n1	4.7	-8	-4%	-18	5

Compounds from the list above containing two or more sulfur atoms, in the order listed:
SMILES	RecA splice inh	YopH inh	Mtb growth	Arbovirus inh	Mtb betalactam	others
CCN(CC)S(=O)(=O)c1ccc(OC)c(NS(=O)(=O)Cc2ccccc2)c1	-6.7	x	x	x	1
CCN(CC)S(=O)(=O)c1ccc(N(C)C)c(NC(=O)CSCc2c(C)noc2C)c1	-2.0	x	x	x	-8

The list continues.
SMILES	RecA splice inh	YopH inh	Mtb growth	Arbovirus inh	Mtb betalactam	others
C=CCn1c(SCC(=O)Nc2ccc3c(c2)OCO3)nc2ccccc2c1=O	-2.2	-40	-2%	-5	3
C(=C\c1ccncc1)/c1ccncc1	2.2	x	-10%	x	-12
Cc1cc(C)c2sc(NC(=O)c3ccc(N4C(=O)CCC4=O)cc3)nc2c1	1.2	x	-3%	x	-2
O=C(Cn1cc(C(F)(F)F)cc(Cl)c1=O)NCc1ccccc1	-2.5	x	x	x	1
CC(=O)NC(c1ccc(Cl)cc1)c1c(O)ccc2ccc(O)cc12 (stereo unspecified)	59*	x	-4%	6	-2
Cc1nc(SCC(=O)NC(=O)NC2CCCCC2)nc(C)c1C	-2.3	x	4%	3	-3
CCOC(=O)N/N=C(/C)c1ccc([N+](=O)[O-])o1	-4.9	-22	u	0	100
Cn1cc(-c2ccccc2C(N)=O)c(=O)c2cc(Cl)ccc21	-0.2	x	2%	4	-7
COc1ccc(/C(C)=N/NC(=O)c2ccc(CSc3nncn3C)cc2)cc1	-0.6	x	-6%	-2	-8
C/C(=N\OCc1ccccc1C#N)c1cc2ccccc2o1	0.1	x	12%	-10	-7
CN1CCC(=O)N([C@H](CSc2ccccc2)Cc2ccccc2)CC1	0.9	x	x	x	-5
CN(C)c1nc(N)nc(Nc2ccccc2C#N)n1	2.8	-59	-8%	-6	7
Cc1c(N=C2SCC(=O)N2/N=C/c2ccccc2Cl)c(=O)n(-c2ccccc2)n1C	8.6	6	-2%	4	-6
Cc1ccc(S(=O)(=O)N2CCCC(C(=O)NC3CCCC3)C2)cc1Cl (stereo unspecified)	-3.5	x	x	x	-3
COc1ccc(Cl)cc1NC(=S)N(Cc1cccnc1)Cc1ccco1	1.4	x	-7%	7	-3
COc1ccc(OC)c(-c2cc(C(=O)Nc3c(C)nn(Cc4ccc(Cl)cc4)c3C)no2)c1	7.6	-25	x	27	90
COc1ccc(C)cc1-n1cnnn1	-1.0	x	-4%	x	-4
Cn1c(CCNC(=O)c2ccco2)nc2cc(NS(=O)(=O)c3ccc(Cl)cc3)ccc21	3.5	-24	-6%	1	10
Cc1ccc(NC(=O)/C=C/c2ccc3c(c2)OCO3)cc1S(=O)(=O)N1CCOCC1	-13	-24	-1%	-22	5
CCOc1ccccc1NC(=O)NCCCCc1ccccc1	0.1	x	x	x	-7
Cc1cc(C)c(C)c(S(=O)(=O)N2C(=S)NC(=O)C2CC(C)C)c1C (stereo unspecified)	8.6	-29	10%	13	x
CCOc1ccc(OCC)c(NC(=O)C2CCCN(S(=O)(=O)c3cccs3)C2)c1 (stereo unspecified)	x	-11	-3%	0	x
CC(=O)NC1=NN(C(C)=O)C2(CCCCC2)S1	1.1	28	-13%	-3	-1
N#Cc1ccc(OCC(=O)N2CCN(S(=O)(=O)c3cccs3)CC2)cc1	1.2	-32	-3%	-1	-4
CCOC(=O)[C@@H]1[C@H]2COc3ccc(Br)cc3[C@H]2N2C(=O)N(c3ccc(F)cc3)C(=O)[C@@]12C	-0.2	x	x	x	-6
COc1ccc(OC)c(CNCc2ccc3c(c2)OCO3)c1	-0.5	x	x	x	-1
CC(N=c1ccccn1C(=O)Nc1ccc(F)cc1)c1ccco1 (stereo unspecified)	-0.6	-48	-7%	0	7
COc1ccc(OS(=O)(=O)Cc2ccccc2)cc1	-2.1	x	x	x	-1
CC1CCN(CCCCOc2ccc(F)cc2)CC1	0.9	x	x	x	3
CCOc1ccc2c(c1)C(C)=CC(C)(C)N2S(=O)(=O)c1ccc(C)cc1	x	x	20%	-13	x
CC(=O)N(CCCc1ccc(C(C)(C)C)cc1)CCCN(C)C	0.0	-30	-2%	-23	6	Arbovirus inh repeat=-19
Brc1ccccc1-c1nnc(-c2cccnc2)o1	1.2	-7	-8%	-2	2
COc1ccc(N2C(=O)c3ccc(C(=O)Nc4ccccc4OC)cc3C2=O)cc1	1.3	x	x	x	-2
CCOc1ccc(S(=O)(=O)NCCC(=O)N2CCCN(C)CC2)cc1	-0.4	x	x	x	-26
CCOc1cc(C2C(C(=O)c3ccco3)=C(O)C(=O)N2CCc2ccccc2)ccc1O (stereo unspecified)	-1.8	-24	4%	5	0	Arbovirus inh repeat=0
Cc1ccc(N=Nc2c(N)nn3c(C)cc(C)nc23)cc1	-2.9	-20	68%	-4	91

Part of the list above in order of heavy-atom count, ascending.
SMILES	RecA splice inh	YopH inh	Mtb growth	Arbovirus inh	Mtb betalactam	others
CCOC(=O)N/N=C(/C)c1ccc([N+](=O)[O-])o1	-4.9	-22	u	0	100
Cc1ccc(N=Nc2c(N)nn3c(C)cc(C)nc23)cc1	-2.9	-20	68%	-4	91
CC(N=c1ccccn1C(=O)Nc1ccc(F)cc1)c1ccco1 (stereo unspecified)	-0.6	-48	-7%	0	7
CCC1=C(OC(=O)N(CC)CC)N2C(=O)OC(=NCC3CC3)[C@]2(Cc2ccccc2)[C@H]2C1=CC[C@H]1C(=O)N(c3ccccc3)C(=O)[C@H]12	10	x	-10%	x	26

Further structures:
SMILES	RecA splice inh	YopH inh	Mtb growth	Arbovirus inh	Mtb betalactam	others
CCOc1ccccc1N(C)C(=O)c1nn(-c2ccc(OC)cc2OC)c(=O)c2ccccc12	0.3	x	6%	-1	3
CCn1cc(S(=O)(=O)NCCc2ccc(F)cc2)cn1	0.1	x	x	x	-15
CCS(=O)(=O)c1nc(S(=O)(=O)c2ccc(Cl)cc2)c(NCc2ccco2)s1	0.3	-18	-4%	-5	3
COc1ccc(CNC(=O)C(c2ccco2)N(C(=O)Cc2cccs2)c2cccnc2)cc1 (stereo unspecified)	-2.9	x	-9%	1	-4
COc1cccc(-c2nnc(Nc3nc4c(F)cccc4s3)o2)c1	2.2	-8	1.6µM*	-12	96
COC(=O)c1sc(S(=O)(=O)N2CCN(c3ccc(OC)cc3)CC2)c(C(=O)OC)c1C	-1.4	-14	3%	0	2
COc1ccc(Br)c(-c2nc(CS(=O)(=O)c3ccc(F)cc3)no2)c1	0.5	x	3%	x	-6
Cc1noc(C)c1-c1ccc2nc[nH]c(=O)c2c1	1.5	x	-6%	x	0
COc1cc(NC(C)=O)c2ncccc2c1NC(C)=O	-1.8	x	x	x	-5
C#CCCOC(=O)N1C2=NC(C(=O)OC)=C(C(=O)OC)[C@@H]3Nc4ccccc4[C@]23C[C@H]1C(=O)OC	-0.2	x	-11%	x	6
CCOC(=O)c1nn(-c2ccc(C)c(C)c2)c(=O)c2c(N)scc12	x	23	11%	-9	3
CCc1ccc2c(c1)Sc1ccccc1CC2N1CCN(C)CC1 (stereo unspecified)	-0.1	x	x	x	99
Cc1nnc(SC(C)C(=O)NC2CCCc3ccccc32)n1-c1ccccc1 (stereo unspecified)	1.7	-15	8%	3	2
Cc1cccc2nc3ccccc3cc12	-4.7	x	x	x	-7
Cc1csc(NC(=O)c2ccc(S(=O)(=O)N3CCCC3)cc2)n1	-5.3	x	-13%	x	2
Cc1ccc(Cn2ccc(NC(=O)c3noc4c3CCc3ccccc3-4)n2)cc1	1.3	-31	-3%	-5	12
COC(=O)Cc1cc(C)cc2c(=O)cc(-c3ccoc3)oc12	-16	x	x	x	1
CN(CCc1ccccn1)C(=O)c1ccc(OC2CCN(Cc3ccccn3)CC2)cc1	-6.3	x	x	x	-3
N#Cc1nc(Cc2ccccc2)oc1NCc1ccccc1	7.0	-16	1%	-9	5
O=C(CCN1C(=O)c2ccccc2C1=O)NCCC1=CCCCC1	-1.8	-37	-6%	5	-9
CCOC(=O)c1cnc(SCc2nc(N)nc(Nc3ccc(F)cc3)n2)nc1N	x	-13	-6%	5	2
O=C(Nc1cccnc1)c1ccc(COc2ccccc2Br)cc1	-2.7	x	x	x	2
O=C(Nc1ccc(OC(F)(F)F)cc1)Oc1ccccc1N1CCCCC1	-3.5	x	-6%	x	-5
COc1cc2c(cc1OC)CN(C(=O)c1cc(Cl)nc(Cl)c1)CC2	2.1	x	x	x	-5
CCOC(=O)c1cnn(-c2ccccc2)c1NC(=O)c1ccccc1C	0.8	-20	-2%	-4	1
COc1ccccc1-c1nnc2sc(COc3ccc(Cl)cc3Cl)nn12	1.0	-18	11%	-6	-1
CCOC(=O)N1CCN(Cc2nc3c(c(=O)n(C)c(=O)n3C)n2CCCc2ccccc2)CC1	0.8	-46	-3%	-3	-6
COCCN(C(=O)Nc1ccc(OC)cc1OC)C1CCN(C(C)C)CC1	1.6	-12	-5%	1	4
CC(C)C(=O)NC(c1cccc([N+](=O)[O-])c1)c1c(O)ccc2ccccc12 (stereo unspecified)	-5.1	x	-6%	-1	-4
O=C(N/C(=C\c1cccc([N+](=O)[O-])c1)C(=O)N1CCOCC1)c1ccc([N+](=O)[O-])cc1	x	x	7%	7	-5
O=C1CCN(Cc2ccccc2)CCN1[C@H](COc1ccccc1)Cc1ccccc1	7.9	x	x	x	4
CCc1cccc(CC)c1NC(=O)CSc1nc2ccc(N3C(=O)C4C5C=CC(C5)C4C3=O)cc2s1 (stereo unspecified)	2.4	-19	1%	-15	-5
CCNc1ccc(C(=O)OCC(=O)NCCN2C(=O)CSC2=O)cc1[N+](=O)[O-]	-0.4	x	-3%	7	4
OC(C#CCN1CCOCC1)(c1ccccc1)C1CCCC1 (stereo unspecified)	0.4	1	3%	4	-12
O=C(NCC1CCS(=O)(=O)C1)NCC1CCS(=O)(=O)C1 (stereo unspecified)	-0.6	-16	-5%	10	-16
CN1CCN(CCNC(=O)Nc2ccccc2[N+](=O)[O-])CC1	1.7	x	x	x	2
O=C(Cn1ccc([N+](=O)[O-])n1)N1CCc2ccccc21	-0.8	x	6%	1	-14
COc1ccc(S(=O)(=O)N2CCC(C(=O)NCCC(=O)Nc3cccc(Cl)c3)CC2)cc1	-2.6	x	x	x	5
CC(C)c1nc(C#N)c(N2CCOCC2)o1	0.1	-23	-2%	-1	-10
c1ccc2oc(SCc3cn4ccccc4n3)nc2c1	-1.3	-34	-11%	3	4
COc1cc(C(=O)Nc2ccc(NC(=O)C3CC3)nc2)cc(OC)c1OC	-1.0	-2	-1%	-4	-1
C/C=C(\C)C(=O)OC(C)(C)[C@H]1Cc2cc3ccc(=O)oc3cc2O1	6.2	x	x	x	-2
CCSc1cc(N2CCCC2)nc(-c2ccc(F)cc2)n1	-3.9	-10	-3%	2	1
Clc1ccc(C2=Nn3c(Cn4nnc5ccccc54)nnc3SC2)cc1	4.9	x	3%	x	0
COCCNc1c2c(c(C#N)c3nc4ccccc4n13)CCCC2	-39	x	-3%	3	58
COc1ccc(Cl)cc1NC(=O)CN(C)C(=O)Cc1ccsc1	1.6	x	x	x	3
Cc1n[nH]c(=O)c2c(NC(=O)CSc3nnc(-c4ccncc4)n3C)oc(C)c12	-3.5	x	x	x	-23
CC1(C)CC(=O)C2=C(C1)Nc1ncnn1C2c1ccccn1 (stereo unspecified)	1.7	-9	3%	1	-4
CC(=O)c1cc2c(cc1NS(=O)(=O)c1ccccc1Br)OCO2	-2.0	x	x	x	3
O=C(CNS(=O)(=O)c1ccc(Br)s1)N1CCC2(CC1)OCCO2	0.4	-34	1%	4	-2

Screening data from PubChem BioAssay.
